VDR inh – blocks the human vitamin D receptor. P11473. VDR-SRC2-3 peptide fluorescence polarization, 2 h. Potency, µM, for inactives: max response, negative = inhibition, most hits filed as inhibitors. actives 0.93% (n = 400,000). AID 504847; active = well fitted inhibition curve with a large enough effect; note: series mostly up to about 120 µM
Target sequence (P11473 whole entry, looked up): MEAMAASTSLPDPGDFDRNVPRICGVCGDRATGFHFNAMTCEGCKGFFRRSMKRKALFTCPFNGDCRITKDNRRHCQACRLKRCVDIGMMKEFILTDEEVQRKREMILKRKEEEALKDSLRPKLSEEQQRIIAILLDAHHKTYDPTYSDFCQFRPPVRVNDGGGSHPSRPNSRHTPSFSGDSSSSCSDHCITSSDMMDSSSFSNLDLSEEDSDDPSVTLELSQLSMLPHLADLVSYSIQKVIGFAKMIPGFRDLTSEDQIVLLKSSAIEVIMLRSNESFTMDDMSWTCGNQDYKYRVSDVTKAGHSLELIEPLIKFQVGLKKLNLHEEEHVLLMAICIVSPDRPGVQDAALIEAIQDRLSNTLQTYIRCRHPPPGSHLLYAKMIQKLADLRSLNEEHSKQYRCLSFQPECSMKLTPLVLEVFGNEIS
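After 23 nl compound addition and a short centrifugation, plates sat for 2 hours at ambient temperature; polarization of fluorescence then indicated loss of VDR binding to peptide SRC2-3.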
The depositor's hits bear a star; & = joins results of further samples; [ ] = dose if it differs, or a comment. % is set by controls: 0 for no effect and ±100 for the full control effect; potency is the fitted concentration of half-maximal effect.

compound | VDR inh
O=C(c1cccc(C(=O)N2CCN(c3ncccn3)CC2)c1)N1CCN(c2ncccn2)CC1 | 13.5%
COc1ccc2oc(=O)c(C(=O)NCCc3c(C)[nH]c4ccc(C)cc34)cc2c1 | -15.4%
COc1ccc(C(=O)c2ccc([N+](=O)[O-])cc2)cc1S(=O)(=O)N1CCC(C(=O)O)CC1 | -5.1%
CC(=O)Nc1ccccc1OC(=O)N1CCOCC1 | 18.5%
CC(=O)N(CC(=O)Nc1sc(C)c(C)c1C(N)=O)Cc1ccccc1 | -3.3%
O=C(c1cc(-c2ccc(F)cc2)on1)N1CCCc2ccccc21 | 19.7%
Cc1nc2ccccn2c1C(=O)NCC(C)C | -3.1%
CCCCN(C)CCCNC(=O)c1ccc2c(c1)NC(=O)C(N1CCOCC1)S2 (stereo not drawn) | -5.6%
CCOC(=O)C1CCN(C(=O)Cn2nc(C)n3cccc3c2=O)CC1 | 1.3%
COc1ccc(CCNC(=O)CCc2cc(OC)c(OC)c(OC)c2)cc1 | -7.0%
Cn1c(=O)c2c(-c3ccccc3)n3c(c2n(C)c1=O)C(c1ccccc1[N+](=O)[O-])Nc1ccccc1-3 (stereo not drawn) | 13.8%
CCCCCCCCC(=O)N1CCN(c2cc3c(cc2F)c(=O)c(C(=O)O)cn3CC)CC1 | 10.4%
COCCn1c(=O)c(-c2ccc(Cl)cc2)nc2cnc(N3CCOCC3)nc21 | -2.2%
O=C(Nc1ccc(N2CCOCC2)c(Cl)c1)C1CCCCC1 | -7.6%
CCc1ccc(NC(=O)CSc2ccc(-c3sc(-c4ccccc4)nc3C)nn2)cc1 | 1.9%
O=C(c1cccnc1)c1ncc(C(F)(F)F)cc1Cl | -3.5%
O=C(Nc1ccc(Cl)cn1)c1cccc(S(=O)(=O)N2CCCCC2)c1 | -21.4%
Cc1cc(=O)oc(C)c1C(=O)Nc1cccc(F)c1 | -13.3%
CC(c1cccs1)N(C)Cc1nc(CCc2ccccc2)no1 (stereo not drawn) | 7.9%
C=CCc1cccc2cc(C(=O)Nc3ccc(CC(=O)O)cc3)c(=O)oc12 | -2.5%

Arranged by length of the SMILES (high to low): 3 of the compounds above.
compound | VDR inh
CCCCCCCCC(=O)N1CCN(c2cc3c(cc2F)c(=O)c(C(=O)O)cn3CC)CC1 | 10.4%
COc1ccc(CCNC(=O)CCc2cc(OC)c(OC)c(OC)c2)cc1 | -7.0%
Cc1cc(=O)oc(C)c1C(=O)Nc1cccc(F)c1 | -13.3%

(more compounds)
compound | VDR inh
O=C(N/N=C/c1cccc(F)c1)c1cc(-c2ccco2)nc2ccccc12 | -5.6%
CC(=O)c1cccc(Nc2nc(-c3ccccc3)cs2)c1 | -9.6%
Cc1cc(NC(=O)c2cc3n(n2)C(C(F)(F)F)CC(c2ccc(Cl)c(Cl)c2)N3)no1 (stereo not drawn) | 13.2%
COc1ccc(/C(O)=C2\C(=O)C(=O)N(CC3CCCO3)C2c2cc(OC)ccc2OC)cc1 (stereo not drawn) | 3.1%
O=C(NCc1ccccc1)/C(=N\O)c1ccccc1 | -12.2%
CCCNC(=O)C(Cc1cccc(OC)c1)NC(=O)c1ccc(C#N)cc1 (stereo not drawn) | -19.8%
C=CCN(c1ccc(C(=O)NCCc2ccccc2)cc1)S(C)(=O)=O | 0.8%
C=CCN(c1ccccc1)S(=O)(=O)c1cccc(C(=O)OCC(=O)NCCOC)c1 | -13.8%
CCN(CC)CCN1C(=O)C(=O)/C(=C(/O)c2c(C)[nH]c(C(=O)OC)c2C)C1c1cccs1 (stereo not drawn) | 8.9%
COC(=O)COc1ccc(Oc2nc(NC(C)(C)C)nc(N3CCOCC3)n2)nn1 | -12.4%
O=C(COc1ccc2c(-c3ccccc3)cc(=O)oc2c1)N[C@@H](Cc1c[nH]c2ccc(O)cc12)C(=O)O | -13.3%
CCOc1ccccc1N1CCN(C(=O)c2c(-c3c(F)cccc3Cl)noc2C)CC1 | -8.2%
CCc1nc2ccc(C(=O)N(C)CC(=O)Nc3ccc(F)c(F)c3F)cc2nc1CC | -20.9%
O=C(NCCCN1CCCC1=O)c1cc(-c2cccnc2)nc2ccc(Cl)cc12 | 7.9%
Cc1ccc(NC(=O)CN(C)C(=O)c2ccc3[nH]c4c(c3c2)CC(C)CC4)cc1 (stereo not drawn) | 3.3%
CN(CCc1ccc(Cl)c(Cl)c1)CC(O)COc1ccc(NS(C)(=O)=O)cc1 (stereo not drawn) | -7.1%&4.1%
COCC(=O)Nc1cc(C)c2c(=O)oc3ccccc3c2n1 | -16.1%
COc1ccc(OC)c(NC(=O)COC(=O)COc2c(Cl)cc(Cl)c3ccc(C)nc23)c1 | 13.9%
CC(C)(C)N1C(=O)c2ccc(C(=O)Nc3nccs3)cc2C1=O | -21.5%
O=C(c1ccc(S(=O)(=O)N2CCCC2)cc1)N(c1ccccc1)C1C=CS(=O)(=O)C1 (stereo not drawn) | -2.5%

Later entries:
compound | VDR inh
Cc1cccc(NC(=O)COC(=O)c2ccccc2-c2nc3ccccc3s2)c1C | 101.7%[activator]
CCn1c(C)cc2c(c1=O)C(c1ccncc1)C(C#N)=C(N)O2 (stereo not drawn) | 10.1%
COc1ccc(C(=O)N2CCC[C@@]3(CCN(c4ccncc4)C3)C2)cc1 | 14.3%
Cc1cc(S(=O)(=O)N2CCN(c3ccc(F)cc3)CC2)c(C)s1 | -1.6%
COc1c(C)cc(C(=O)C2CCCN(C(=O)c3cc(C)nc(C)n3)C2)cc1C (stereo not drawn) | 1.4%
CC(=O)NC1=C(C#N)C(c2ccccc2)c2c(ccc3ccccc23)O1 (stereo not drawn) | 5.1%
O=C(NCCc1ccccc1)c1ccc2c(c1)S(=O)(=O)c1cc(Cl)ccc1C2=O | -1.8%
Cc1cc(Cl)ccc1NC(=O)/C=N/O | -15.6%
CCCN(CCC)C(=O)Nc1cc(Cl)ccc1OC | 6.1%
O=C1CN(C(=O)COc2ccc(Br)cc2F)c2ccccc2N1 | -10.8%
O=C(CN1C(=O)NC2(CCc3ccccc32)C1=O)c1ccc(Br)s1 (stereo not drawn) | 0.9%
Cn1c(N)c(C(=O)COC(=O)CCc2c[nH]c3ccccc23)c(=O)n(C)c1=O | 3.7%
O=C(Nc1ccc2[nH]c(=O)[nH]c2c1)c1ccc(Br)o1 | 3.0%
O=C1NC(Nc2ccccn2)(C(F)(F)F)C(=O)N1c1ccc(F)cc1 (stereo not drawn) | 1.6%
COCCNc1nc(C(C)(C)C)nc2c1nnn2Cc1ccccc1Cl | -0.7%
CC(=O)Nc1ccc(NC(=O)CNC(=O)COc2ccccc2)cc1 | 7.5%
Cc1cc(C(=O)OCC(=O)c2ccc(Br)s2)no1 | 7.4%
CCOc1ccc(C(=O)NCc2ccncc2)cc1OCC | 4.5%
CS(=O)(=O)N(CC(=O)NCCC1=CCCCC1)C1CCCCC1 | -4.9%
Clc1nnc(NN=C2CCCC2)c2ccccc12 | 0.7%

Next part
compound | VDR inh
O=C1N=C(N2CCOCC2)S/C1=C/c1cccs1 | 10.7%
Oc1ccc(O)c(Cc2nc3ccccc3s2)c1 | -17.5%
CON1C(=O)C(=O)N(OC)C2CCCCC21 (stereo not drawn) | 12.0%
CCCN(CC(=O)Nc1ccc(C(N)=O)cc1)CC(=O)Nc1ccc(F)c(F)c1F | -16.3%
COc1ccc(NC(=O)CN(C)C(=O)c2cc(CN3C(=O)c4ccccc4C3=O)ccc2OC)cc1 | -10.7%
C=C(C)C(=O)/C=C/c1ccc(Br)cc1 | 17.8µM*
CC(C)c1ccc(NC(=O)C(c2ccccc2)N(C)C(=O)c2cnccn2)cc1 (stereo not drawn) | 1.4%
O=C(O)c1ccc2nc(-c3ccccc3)c(-c3ccccc3)nc2c1 | 5.8%&-10.2%
O=C(O)C1C(c2ccccc2)C(C(=O)OCc2ccco2)C1c1ccccc1 (stereo not drawn) | -4.6%
Cc1ccccc1NC(=O)CSCc1cc(=O)n2ccsc2n1 | 9.0%
CCCC(=O)OCCNc1cc(Sc2nc3ccccc3[nH]2)c2nonc2c1[N+](=O)[O-] | 20µM*
Cc1ccc(/C=C/C(=O)N2CCCC(C)C2)cc1 (stereo not drawn) | -4.7%
CCOC(=O)Cc1cc(=O)c2cc(C)ccc2[nH]1 | 8.1%
CCN(C[C@H]1N[C@@](CC)(C(=O)OC)[C@H]2C(=O)N(C)C(=O)[C@@H]12)C(=O)Nc1ccc(C)cc1 | -0.7%
O=C(Nc1ccc(N2CCN(Cc3ccccc3)CC2)cc1)c1ncn[nH]1 | 3.6%
COc1ccccc1N(CC(O)CN1CCCCC1)S(=O)(=O)c1ccc(C)cc1 (stereo not drawn) | -1.9%
CC1(C(=O)NC2CCCC2)CCC(=O)N1Cc1ccccc1 (stereo not drawn) | 4.6%
C=CCS(=O)(=O)c1cccc2cccnc12 | 40.4%
O=C(O)CCn1cnc2ccccc2c1=O | 3.7%
Cc1ccc(-c2csc3nnc(SCC(=O)N4CCN(Cc5ccccc5)CC4)n23)cc1 | -5.0%

More results follow.
compound | VDR inh
Cc1ccc(C(=O)Nc2cccc(C(F)(F)F)c2)cc1Nc1ccccn1 | 4.9%
CCOC(=O)c1noc2ncnc(Nc3ccc(F)cc3F)c12 | 4.8%
CC(C)NC(=O)NC(=O)CSc1ccccc1F | -12.2%
COc1ccc(C(=O)NC(=S)Nc2cccnc2)cc1OC | -10.0%
Cc1cc2oc(C(=O)Nc3c(C)n(C)n(-c4ccccc4)c3=O)cc(=O)c2cc1C | 16.0%
CCN(CC)S(=O)(=O)c1ccc2oc(C(=O)NC3CCCc4ccccc43)c(C)c2c1 (stereo not drawn) | -3.3%
O=C(Nc1ccc(NC(=O)c2cccs2)c(Cl)c1)c1ccco1 | 11.1%
O=C(Nc1cccc2ccccc12)N1CC=C(c2ccccc2)CC1 | -8.8%
Cc1cccc(Nc2nc(N)c([N+](=O)[O-])c(N3CCC(C)CC3)n2)c1 | -5.0%
CNC(=O)c1ccsc1NC(=O)c1sc2ccccc2c1Cl | 7.7%
CCOc1cccc(C2CC(=O)Nc3cc4c(cc32)OCCO4)c1 (stereo not drawn) | -23.2%
O=[N+]([O-])c1ccc(C[n+]2cccc3ccccc32)cc1 | -12.9%
CC1CC(C)CN(C(=O)Cn2c(=O)n(CCCCC(=O)NC3CCCC3)c(=O)c3ccccc32)C1 (stereo not drawn) | 19.4%
COc1ccc(-c2cc(-c3ccccc3)nc(-c3ccc4c(c3)NC(=O)CO4)c2)cc1 | 8.9%
O=C1/C(=C/c2ccc(F)cc2)SC(=S)N1N1CCOCC1 | 3.5%
COc1ccc(C(=O)OCC(=O)NC2CC2)cc1S(=O)(=O)N1CCOCC1 | -2.2%
COc1ccccc1NC(=O)C1CCN(c2ncnc3c2nc2n3CCCCC2)CC1 | -2.5%&8.4%
Cc1ccc(-c2csc3ncnc(Nc4ccc(C(=O)O)cc4)c23)cc1 | -2.8%&-2.2%
CCn1c(CNS(=O)(=O)c2ccc(Br)cc2)n[nH]c1=S | 17.0%
O=C(Nc1nc(-c2ccc(F)c(F)c2)cs1)c1ccc(OCC2CCCO2)cc1 (stereo not drawn) | -8.0%

Following part.
compound | VDR inh
COc1ccc(NC(=O)C23CCC(C)(C(=O)C2)C3(C)C)cc1 (stereo not drawn) | -1.8%
Cc1ccc(NC(=O)CC(C)c2ccccc2)cc1S(=O)(=O)N1CCOCC1 (stereo not drawn) | -5.5%
COc1ccc(NS(=O)(=O)Cc2ccccc2Cl)cn1 | -1.6%
COC(=O)[C@H](CCSC)NC(=O)Nc1ccc(OC)cc1OC | -5.3%
COCc1cc(C)nc(NC2CCCCC2)c1C#N | -6.3%
O=C(CSc1nc2ccccc2c(=O)n1CCCC(=O)N1CCCC1)NCc1ccco1 | -8.2%
CCn1ncc(Br)c1C(=O)Nc1ncc(C)s1 | 7.8%
COCCCNC(=O)CSc1nc2cc3c(cc2c(=O)n1CCCCCC(=O)NCCc1ccc(OC)c(OC)c1)OCO3 | 15.7%
CC(C)n1c(SCC(=O)NCc2ccco2)nnc1C1CC1 | -15.8%
CSc1cccc(NC(=S)N2CCC(N(C)C(C)C)CC2)c1 | 2.4%
CCOC(=O)c1c[nH]c2nc(C)ccc2c1=O | -13.3%
c1cncc(-c2csc(-c3cccnc3)n2)c1 | 1.5%
CN(C)c1ccc(P(=O)(COc2ccc([N+](=O)[O-])cc2)c2ccc(N(C)C)cc2)cc1 | 5.1%
C=CCn1c(=O)/c(=C/c2ccc(C)o2)s/c1=C(/C#N)C(=O)c1ccccc1 | 58.5%[activator]
C=CCNC(=O)C1CC(=O)N(c2ccc(OCC(=O)Nc3ccccc3)cc2)C1 (stereo not drawn) | 8.1%
CCc1ccc(-n2c(SCc3nc(-c4cc(OC)ccc4OC)no3)nnc2-c2ccccc2)cc1 | -5.6%
O=C(Cn1cnc2ccccc21)Nc1ccccc1-c1ccccc1 | -12.8%
CN1OC[C@@H]2CN(Cc3ccc(Cl)cc3)[C@H](c3cccc(Br)c3)C[C@@H]21 | 10.0%
Cc1cc2n(n1)C(c1ccc3c(c1)OCO3)Nc1c(C)cccc1-2 (stereo not drawn) | 16.8%
Cc1cc(C(=O)COC(=O)C23CC4CC(CC(O)(C4)C2)C3)c(C)n1-c1c(C)n(C)n(-c2ccccc2)c1=O | 4.4%

Pulled one by one from the list above:
compound | VDR inh
CCc1ccc(-n2c(SCc3nc(-c4cc(OC)ccc4OC)no3)nnc2-c2ccccc2)cc1 | -5.6%
C=CCNC(=O)C1CC(=O)N(c2ccc(OCC(=O)Nc3ccccc3)cc2)C1 (stereo not drawn) | 8.1%
CN(C)c1ccc(P(=O)(COc2ccc([N+](=O)[O-])cc2)c2ccc(N(C)C)cc2)cc1 | 5.1%
CN1OC[C@@H]2CN(Cc3ccc(Cl)cc3)[C@H](c3cccc(Br)c3)C[C@@H]21 | 10.0%

These rows are one share of the data (hit frequency here may not be typical).
